PrP UTR inh: inhibition of PrP 5' UTR reporter expression | cell-based PrP 5' UTR mRNA reporter, plate reader | inhibition, % (no concentration beside the values) | 340,000 tested, 0.35% active | AID 488862;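 active = every replicate at 50% or more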;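 note: 0 = median of the neutral control wells; tested in H4 reporter cells; numbers are from one replicate; inactives centre near -14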
Mtb hypoxia inh: reduces hypoxia-regulated biosensor signal in M. tuberculosis; M. tuberculosis hypoxia-regulated fluorescent reporter, fluorescence; fluorescence inhibition, % (no concentration beside the values); 300,000 tested, 0.1% active;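 active = 35 to 45% if threefold the growth effect, above 45% if 1.5-fold the growth effect; inactive = the rest, general growth blockers included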;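 note: wells of about 50 µL received 100 nL stock; 0% = vehicle wells and 100% = reference inhibitor wells; whole bacteria with a GFP reporter of the hypoxia response; strong numbers were not always called active; many hits fall short of the cut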
ugtP null kill: kills S. aureus RN4220 lacking UgtP; S. aureus RN4220 ugtP deletion, OD600 growth, 16 h; some inactives read as strong as hits; growth inhibition, % (no concentration beside the values); 330,000 tested, 0.54% active; AID 1259309;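 active = z-score under -3 and OD600 up to 0.15 on both plates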;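 note: plate controls were untreated wells for no effect and antibiotic for full effect; wells of about 80 µL received 100 nL stock; the first replicate is given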
Sa RN4220 lethal: kills Staphylococcus aureus RN4220; S. aureus RN4220 growth, OD600, 16 h; inhibition, % (concentration not given with the values); 330,000 tested, 0.33% active; AID 1259311;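 active = z-score of -3 or lower and OD600 up to 0.18 on both plates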;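 note: plate controls were untreated cells for no effect and reference antibiotic for full effect; stock transfer was 100 nL into about 80 µL; one replicate is shown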
Autofluor counter: compound fluorescence in toxin protease inhibitor counterscreen; compound autofluorescence counterscreen, microsphere flow cytometry; hits give high values; fluorescence intensity (test concentration not listed); 360,000 tested, 3.1% active;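 active = at least 3 SD above the mean of all compounds, about 16000 in these data; inconclusive = too few beads counted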;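 note: 100 nL of 1 mM stock went into each well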
BJeLR viability: kills HRASV12-expressing BJeLR cells; inhibition, % (test concentration not listed); 300,000 tested, 0.17% active; BJeLR (HRASV12) viability, CellTiter-Glo ATP luminescence, 48 h; reference of the scale not given here;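 active = replicate mean above 50%; inconclusive = above 50% but judged a plate artefact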;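 note: 50 nL library stock added to about 25 µL; numbers are from one replicate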
Mtb hypoxia inh growth: recorded beside Mtb hypoxia inh, whose call it bears; growth inhibition, %; measured here: M. tuberculosis growth (absorbance);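 0% = vehicle and 100% = reference antibiotic; read after six days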
* = called active by the depositor; ? = inconclusive; . = not tested or not shown.

#	structure	PrP UTR inh	Mtb hypoxia inh	Mtb hypoxia inh growth	ugtP null kill	Sa RN4220 lethal	Autofluor counter	BJeLR viability
1	O=C(COc1ccc(NS(=O)(=O)c2ccc(F)cc2)cc1)N1CCOCC1	8	9	4	2	3.1	3756	-3
2	O=C(CSc1nnc(SCc2ccc(Cl)cc2)s1)NN=Cc1ccc(Cl)cc1Cl	.	2	5	0	-13	.	.
3	CC(C)c1ccc(-c2nc3c([nH]2)c(=O)n(C)c(=O)n3C)cc1	-16	.	.	-3	2.3	4572	4
4	CC12CCC(C(=O)N(c3ccc(Cl)cc3)C1=O)C2(C)C (stereo unspecified)	-13	13	-4	6	3.2	2041	6
5	COc1ccc(CCN(C)C2CCCN(C(=O)c3ccnn3C)C2)cc1OC (stereo unspecified)	-2	9	3	11	-1.7	5838	2
6	Cc1ccc(S(=O)(=O)N2CCN(S(=O)(=O)c3ccc(C)cc3)C2)cc1	-3	6	7	1	3.7	4496	-3
7	O=C(NCc1ccccc1)Nc1cccn(Cc2ccccc2Cl)c1=O	-34	1	3	4	1.9	4248	-4
8	Cc1cccc(CSc2nc3ccncc3n2CC(=O)Nc2cc(C)cc(C)c2)c1	-21	-6	-3	-12	0.3	5854	0
9	NS(=O)(=O)c1ccc(CCNc2nc(C(F)(F)F)nc3ccccc23)cc1	-8	15	13	-2	-2.8	4002	2
10	COc1ccc(-c2nc(-c3cccc(C(F)(F)F)c3)no2)cc1OC	-6	9	6	-1	0.2	4153	-18
11	CC1=C(C(=O)OCc2ccccc2)C(c2ccc(N3CCOCC3)cc2)NC(=O)N1 (stereo unspecified)	-8	10	11	6	3.4	2897	9
12	O=C(COc1ccc(C=NNC(=O)C(=O)N2CCCCC2)cc1)Nc1ccccc1Cl	.	9	4	4	4.0	.	.
13	COC(=O)C1C[C@]2(Br)c3ccccc3N(S(=O)(=O)c3ccccc3)C2N1C(=O)OC (stereo partly specified)	.	3	9	-7	11	.	.
14	CCN(CCCNC(=O)C1CCN(C(=O)c2cc3sccc3n2C)CC1)Cc1ccccc1	-4	-9	-5	5	7.3	4050	-4
15	CCC(CO)Oc1cc(NC(=O)c2cccc(OC)c2)c2ncn(C(C)C)c2c1 (stereo unspecified)	-20	1	5	-15	13	3777	.
16	CC(=O)c1c(C)nc(Nc2nc(C)c3cc(C)ccc3n2)nc1C	-1	.	.	.	.	3256	-11
17	O=C(CSc1n[nH]c(=O)n1Cc1ccco1)N1CCOCC1	.	-3	-4	1	-3.0	.	0
18	COc1cccc(NC(=O)CN(C)S(=O)(=O)c2ccc(C)cc2)c1	-10	.	.	4	1.4	2803	-2
19	Cc1cc(C)n(CC(=O)NNC(=O)CCCOc2ccc(Cl)c(C)c2)n1	-10	3	-16	1	-0.8	4360	0
20	COc1cc(/C=C/CO)ccc1O[C@@H]1O[C@H](CO)[C@@H](O)[C@H](O)[C@H]1O	-36	.	.	-9	3.2	5625	0

Rewritten with two lines to a compound: part of the list above.
Value order: PrP UTR inh	Mtb hypoxia inh	Mtb hypoxia inh growth	ugtP null kill	Sa RN4220 lethal	Autofluor counter	BJeLR viability
[4] CC12CCC(C(=O)N(c3ccc(Cl)cc3)C1=O)C2(C)C (stereo unspecified)
    -13	13	-4	6	3.2	2041	6
[5] COc1ccc(CCN(C)C2CCCN(C(=O)c3ccnn3C)C2)cc1OC (stereo unspecified)
    -2	9	3	11	-1.7	5838	2
[6] Cc1ccc(S(=O)(=O)N2CCN(S(=O)(=O)c3ccc(C)cc3)C2)cc1
    -3	6	7	1	3.7	4496	-3
[7] O=C(NCc1ccccc1)Nc1cccn(Cc2ccccc2Cl)c1=O
    -34	1	3	4	1.9	4248	-4
[8] Cc1cccc(CSc2nc3ccncc3n2CC(=O)Nc2cc(C)cc(C)c2)c1
    -21	-6	-3	-12	0.3	5854	0
[9] NS(=O)(=O)c1ccc(CCNc2nc(C(F)(F)F)nc3ccccc23)cc1
    -8	15	13	-2	-2.8	4002	2
[10] COc1ccc(-c2nc(-c3cccc(C(F)(F)F)c3)no2)cc1OC
    -6	9	6	-1	0.2	4153	-18
[11] CC1=C(C(=O)OCc2ccccc2)C(c2ccc(N3CCOCC3)cc2)NC(=O)N1 (stereo unspecified)
    -8	10	11	6	3.4	2897	9
[12] O=C(COc1ccc(C=NNC(=O)C(=O)N2CCCCC2)cc1)Nc1ccccc1Cl
    .	9	4	4	4.0	.	.
[13] COC(=O)C1C[C@]2(Br)c3ccccc3N(S(=O)(=O)c3ccccc3)C2N1C(=O)OC (stereo partly specified)
    .	3	9	-7	11	.	.
[14] CCN(CCCNC(=O)C1CCN(C(=O)c2cc3sccc3n2C)CC1)Cc1ccccc1
    -4	-9	-5	5	7.3	4050	-4
[15] CCC(CO)Oc1cc(NC(=O)c2cccc(OC)c2)c2ncn(C(C)C)c2c1 (stereo unspecified)
    -20	1	5	-15	13	3777	.
[16] CC(=O)c1c(C)nc(Nc2nc(C)c3cc(C)ccc3n2)nc1C
    -1	.	.	.	.	3256	-11
[17] O=C(CSc1n[nH]c(=O)n1Cc1ccco1)N1CCOCC1
    .	-3	-4	1	-3.0	.	0

Other compounds:
#	structure	PrP UTR inh	Mtb hypoxia inh	Mtb hypoxia inh growth	ugtP null kill	Sa RN4220 lethal	Autofluor counter	BJeLR viability
21	O=C1OCCN1C(=O)[C@H]1[C@H](c2ccc([N+](=O)[O-])cc2)C(c2ccc(F)cc2)=NN1c1ccccc1	-36	1	11	-2	-11	3501	.
22	CCOC(=O)C1=C(C)OC(N)=C(C#N)C1c1ccccc1 (stereo unspecified)	-30	21	14	5	0.7	4385	3
23	CC(C)Sc1nnc([C@H](Cc2c[nH]c3ccccc23)NC(=O)OC(C)(C)C)o1	-29	10	12	-15	15	8948	-3
24	CCN(c1ccc2c(c1)OCO2)S(=O)(=O)c1cc(Br)cc2c1N(C(=O)C1CC1)CC2	-12	5	10	-3	5.5	6848	0
25	Cc1cc(C)c(OCC(=O)N2CC=C(c3ccccc3)CC2)c(C)c1	10	4	-3	9	30	4800	13
26	CN(C)c1ccc(C(=O)C(O)c2ccc(C(C)(C)C)cc2)cc1 (stereo unspecified)	-6	-4	-1	2	6.9	5622	-3
27	CCC(C)C(NC(=O)C1CCC(=O)N1C(=O)OCc1ccccc1)C(=O)NC(C(=O)N1CCCC1C(N)=O)C(C)CC (stereo unspecified)	-17	11	14	4	1.1	3560	6
28	O=C(NNC(=O)c1cccnc1)NC12CC3CC(CC(C3)C1)C2	-29	-3	11	1	-2.5	11692	-1
29	Cc1ccc(-n2c(C)nn(CC3CC3)c2=O)cc1	-7	7	3	7	9.5	4065	-1
30	Cc1ccc(N(Cc2ccccc2)C(=O)c2cc(S(=O)(=O)N3CCOCC3)ccc2N2CCCC2)cc1	-10	-3	9	-6	2.2	?	7
31	CCOC(=O)C1CCN(c2c(N3CCN(Cc4ccccc4)CC3)c(=O)c2=O)CC1	2	3	-1	10	2.8	4259	8
32	CCc1ccccc1NC(=O)CCNC(=O)Cn1ccc2ccccc2c1=O	-14	0	-11	11	1.4	6044	8
33	O=C1Nc2ccc(F)cc2C12SCCS2	-36	5	5	3	2.7	11042	-11
34	Cc1ccc2c(c1)C(=O)CC(O)(C(F)(F)F)O2 (stereo unspecified)	-18	2	6	6	5.5	3082	0
35	Cc1ccccc1N1CC(C(=O)Nc2ccc(S(=O)(=O)NCC3CCCO3)cc2)CC1=O (stereo unspecified)	-16	5	0	13	1.8	5180	-2
36	C=CCOc1ccc(/C=C/C(=O)OCC(=O)NCC(=O)Nc2c(C)cc(C)cc2C)cc1	-24	-2	0	6	3.3	5981	9
37	CCC(C(=O)Nc1ccc(C(=O)N2CCCC2)cc1)c1ccccc1 (stereo unspecified)	-16	-4	3	4	5.4	4518	3
38	COc1ccc(-c2c(C)nn3c(N)c(-c4ccccc4)cnc23)cc1OC	-2	13	5	-9	13	4470	0
39	Clc1cccc2sc(N3CCOCC3)nc12	-5	10	5	6	15	3876	-9
40	COc1ccc(OCCC(=O)OCC(=O)NCc2ccccc2)cc1	-10	-2	-1	4	-2.7	2008	4

Compound profiles, from the list above. Order of screens: PrP UTR inh	Mtb hypoxia inh	Mtb hypoxia inh growth	ugtP null kill	Sa RN4220 lethal	Autofluor counter	BJeLR viability
Entry for `O=C(NNC(=O)c1cccnc1)NC12CC3CC(CC(C3)C1)C2` = -29	-3	11	1	-2.5	11692	-1
Entry for `O=C1OCCN1C(=O)[C@H]1[C@H](c2ccc([N+](=O)[O-])cc2)C(c2ccc(F)cc2)=NN1c1ccccc1` = -36	1	11	-2	-11	3501	.

(further entries)
#	structure	PrP UTR inh	Mtb hypoxia inh	Mtb hypoxia inh growth	ugtP null kill	Sa RN4220 lethal	Autofluor counter	BJeLR viability
41	CC1CCN(C(=O)C(C)NCc2ccc(F)cc2)CC1 (stereo unspecified)	-32	.	.	.	.	3808	0
42	CC(C(=O)NCc1ccccc1)C1C[C@]1(C)C(NC(=O)OCc1ccccc1)c1ccccc1 (stereo partly specified)	.	2	1	-1	-1.4	.	.
43	CC(C)(C)c1ccc(OCc2ccc(C(=O)NN=Cc3ccc(O)c(O)c3)cc2)cc1	.	10	-1	94*	47	.	.
44	Cc1ccc(C(OC(=O)c2ccco2)C(=O)NC2CCCCC2)cc1 (stereo unspecified)	-29	12	2	-5	2.5	9243	-9
45	NC(=O)c1cc2cc(Cl)ccc2oc1=Nc1cccc(C(F)(F)F)c1	-1	2	-5	6	3.3	4114	0
46	O=C(O)COc1ccccc1/C=N/NC(=O)CN1CCN(S(=O)(=O)c2ccc(Br)cc2)CC1	8	.	.	.	.	4395	-1
47	Cc1c(C)c2ccc(OCC(=O)N3CCN(c4cccc(Cl)c4)CC3)cc2oc1=O	-14	8	-6	8	4.3	5585	2
48	O=C(Nc1cccc(-c2nc3ccccc3o2)c1)c1ccc(N2C(=O)C3C4C=CC(C4)C3C2=O)cc1 (stereo unspecified)	-8	9	6	-15	1.7	3155	0
49	Cc1ccc(NC(=O)c2c(-c3ccccc3Cl)noc2C)nc1	2	-15	2	-4	-3.0	?	-6
50	CC(C)n1c(=O)c(C=Nc2ccc(S(N)(=O)=O)cc2)c(O)n(Cc2ccco2)c1=O	0	13	5	1	4.8	1924	-9
51	CC(=O)Nc1ccn(-c2ccccc2)n1	-18	-73	-13	1	2.7	7922	1
52	Cc1cc(C)n(CCc2nc(-c3ccc(-c4ccccc4)cc3)cs2)n1	-47	6	8	-2	-0.3	2555	26
53	COC(=O)C1=C(C)NC(=S)NC1c1ccc(OCC(=O)N2CCCCC2)c(OC)c1 (stereo unspecified)	-21	11	10	10	2.6	5270	0
54	O=C(O)c1cccc(Nc2ccc([N+](=O)[O-])c3nonc23)c1	-18	24	-2	19	2.9	3825	5
55	CN(C)S(=O)(=O)c1ccc(C(=O)NCc2ccc3[nH]c4c(c3c2)CCCC4)cc1	-15	3	4	4	-10	5417	5
56	COc1ccc(NC(=O)Nc2nnc(-c3ccncc3)s2)cc1	5	7	4	1	-3.0	3491	-3
57	CCOc1ccc(NC(=S)N(Cc2ccc(N(C)C)cc2)Cc2ccco2)cc1	-5	3	9	25	6.5	8445	5
58	O=C(NNC1CC(=O)N(c2ccc(Br)cc2)C1=O)c1cccs1 (stereo unspecified)	-4	4	1	6	2.9	3485	5
59	Fc1ccc(NCc2cccnc2)cc1	-14	11	9	-2	3.5	3635	-14
60	C/C(=N\NC(=O)C1CC1)c1ccc(Cl)cc1	-12	.	.	.	.	2024	1
61	O=C1CC(=C(c2ccccc2)c2ccccc2)C(=O)N1CCCCN1CCN(c2cccc(Cl)c2)CC1	4	6	10	13	-4.0	2344	3
62	COc1ccccc1N1CCN(C(=O)c2ccoc2C)CC1	-19	14	6	7	-2.7	2363	-2
63	O=C(COC(=O)C12CC3CC(CC(O)(C3)C1)C2)Nc1ccc(Br)cc1F	-70	-2	2	2	1.5	3755	.
64	O=c1cc(N2CCN(c3ccccc3)CC2)[nH]c(=O)n1-c1ccccc1Cl	-13	-11	0	4	1.0	21259*	6
65	CC(C)(O)C=CC(=O)[C@](C)(O)C1C(O)C[C@@]2(C)C3CC=C4C(C=C(OC5OC(CO)C(O)C(O)C5O)C(=O)C4(C)C)[C@]3(C)C(=O)C[C@]12C (stereo partly specified)	.	-2	9	-1	2.7	.	.

Bioassay records as filed in PubChem BioAssay.

Outcome played no part in choosing rows; any-hit rate near 4%.
